Screening results as filed in PubChem.
gsp agonist: agonists of gsp mutant (McCune-Albright syndrome); AID 624287; hit rate 0.13% among 340,000; Potency, µM (series often up to 76.9 µM), for the others: at the highest dose activation (cAMP increase), usual class: activators; gsp mutant cells, cAMP HTRF, 30 min; control for the full effect not named in the record; active = well fitted activation curve with a large enough effect; inconclusive = small, poorly fitted or top-dose-only effect, or another doubt; inactive = no such curve, though single readings can be large or run the other way; cell line not stated here;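 also: phosphodiesterase inhibitor Ro 20-1724 added with compounds to block cAMP breakdown; potency is read from the fitted curve at half-maximal effect; nearly all actives have a fitted effect of over 60% in size; about a fifth of the inactives were tested at one dose only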
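Cells stably selected in G418 were plated at 2000/well, grown 16-24 hr, then given compounds in DMSO with the PDE inhibitor […] (300 uM solution added) for 30 min at 37C; cAMP was read by HTRF.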
Menin-MLL FL inh: displaces fluorescein MLL peptide from human menin | FP activity change, % at 61.4 µM | Fluorescence polarization, fluorescein-MLL peptide displacement from menin | 290,000 tested, under 10 active; inconclusive = falling polarisation curve, or a change in total fluorescence; inactive = total fluorescence flat and polarisation flat or rising; no compound was filed as active; the % refers to the polarisation; negative = inhibition;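 also: % of control where 0% means no effect; inhibitors lower the polarisation; unlabelled MLL peptide was the positive control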
TRPML1 ag: activates the human TRPML1 channel. Q9GZU1. TRPML1-expressing cells, Ca2+ dye fluorescence, FDSS; host cell line not named in the record; reference of the full effect not given here. activation, % (no concentration beside the values). hit rate 0.12% among 410,000. AID 624414; in the data active = activation above about 50%; inconclusive = about 30% to 50%; inactive = below about 30%; also: 0% is about no effect; the text of the record puts the active cut at 80%
Target sequence (Q9GZU1 whole entry, looked up): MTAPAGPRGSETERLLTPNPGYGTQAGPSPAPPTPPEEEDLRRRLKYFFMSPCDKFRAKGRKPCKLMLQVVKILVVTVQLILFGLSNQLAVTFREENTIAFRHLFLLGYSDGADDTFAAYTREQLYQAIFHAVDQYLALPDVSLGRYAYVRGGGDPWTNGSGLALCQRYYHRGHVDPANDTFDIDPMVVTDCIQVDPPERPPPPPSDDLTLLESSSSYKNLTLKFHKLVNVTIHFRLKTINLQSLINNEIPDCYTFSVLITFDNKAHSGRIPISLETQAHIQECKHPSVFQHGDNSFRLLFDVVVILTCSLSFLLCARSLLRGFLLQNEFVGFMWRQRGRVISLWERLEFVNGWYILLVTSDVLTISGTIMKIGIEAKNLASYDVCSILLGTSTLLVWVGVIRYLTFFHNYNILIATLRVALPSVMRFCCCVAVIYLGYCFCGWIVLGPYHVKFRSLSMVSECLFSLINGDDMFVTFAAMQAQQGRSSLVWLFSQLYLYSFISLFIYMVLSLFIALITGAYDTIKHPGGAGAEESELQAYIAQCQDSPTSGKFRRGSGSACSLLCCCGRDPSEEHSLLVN
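Kinetic FDSS Ca2+ read in Tet-induced TRPML1-DL cells (ABD Ca8 dye plus quencher, 45-90 min RT loading): baseline, then compound, then 110 s agonist window; EC80 agonist 54-4 at 4uM final added afterwards for a 110 s antagonist window.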
ClpP mod: qHTS Assay for Activators of ClpP; Potency, µM (doses to about 57.5 µM), inactives show at the top dose activity change, negative = active; hit rate 1.9% among 340,000; ATP-dependent Clp protease proteolytic subunit (Bacillus subtilis (strain 168)), P80244; purified B. subtilis ClpP, FRET peptide cleavage, 20 min; active = well fitted falling curve with a large enough effect; inconclusive = small, poorly fitted or top-dose-only effect; inactive = no such curve, though single readings can be large or run the other way; also: potency is read from the fitted curve at half-maximal effect; the source files actives as falling curves though it sought activators and does not explain the sign; nearly all actives have a fitted effect of over 65% in size; many hits overshoot -100%
Target sequence (P80244 whole entry, looked up): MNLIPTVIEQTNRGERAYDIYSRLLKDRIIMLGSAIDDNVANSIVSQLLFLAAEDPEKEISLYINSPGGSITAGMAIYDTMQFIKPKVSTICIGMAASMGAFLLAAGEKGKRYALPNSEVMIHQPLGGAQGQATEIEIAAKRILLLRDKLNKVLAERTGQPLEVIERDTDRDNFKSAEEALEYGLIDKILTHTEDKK
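FRET quenching reversal measured ClpP activation: 10 microg/mL B. subtilis ClpP at pH 8 with the FRET-FV decapeptide, read at 430 nm after 320 nm excitation. The 20-min minus 0-min signal was scaled between DMSO/no-enzyme wells and ADEP (5.8 microM final).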
gsp antagonist: antagonists of gsp mutant (McCune-Albright syndrome) | gsp-mutant cells, cAMP HTRF, 30 min; control for the full effect not named in the record | Potency, µM (doses to about 76.9 µM), inactives show top-dose activity change, negative = inhibition, hits mostly inhibitors | hit rate 0.4% among 340,000 | AID 624288; active = falling curve of any shape with a large fitted effect; inconclusive = falling curve, mostly with a smaller effect; inactive = flat or rising curve; cell line not stated here;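 also: intracellular cAMP measured with PDE inhibitor Ro 20-1724 present during compound exposure; potency is read from the fitted curve at half-maximal effect; % is scaled to controls: 0 for no effect and ±100 for the full control effect; nearly all actives have a fitted effect of over 65% in size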
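HTRF cAMP measurement after 30 min RT detection following 30 min, 37C compound treatment alongside […] (added as 300 uM solution) in G418-selected cells seeded at 2000/well and grown 16–24 h.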
TRPML1 inh: human mucolipin-1 channel inhibition | hit rate 0.02% among 390,000 | Q9GZU1 | AID 624415 | TRPML1-inducible cells, Ca2+ dye fluorescence, FDSS; hits give low values; inhibition of EC80 agonist-evoked calcium signal | activity change, negative = inhibition, % (concentration not given with the values); in the data active means activity change below about -50%; inconclusive means about -30% to -50%; inactive means above about -30%;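 also: stimulus is agonist 54-4 at its EC80 concentration; % is scaled to controls: 0 for no effect and ±100 for the full control effect; compound concentration not given in the record; the text of the record puts the active cut at -80%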
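Tet-induced TRPML1-DL cells loaded with Ca8 no-wash calcium dye were read kinetically on FDSS. Compound addition was followed by EC80 agonist 54-4 (4 uM final); inhibition was read over 110 s.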
The depositor's hits bear a star; ? = inconclusive; nt = not tested or not shown; [ ] = remark or other dose.

Structure	Menin-MLL FL inh	TRPML1 ag	gsp antagonist	gsp agonist	TRPML1 inh	ClpP mod
CC(=O)Nc1ccc(NC(=O)C(C)OC(=O)CCC2CCCC2)cc1 (stereo unspecified)	nt	1.3	2%	4%[15.4 µM]	20	nt
CCS(=O)(=O)N1Cc2ccccc2CC1C(=O)Nc1nc2ccccc2s1 (stereo unspecified)	1.5	-0.8	-10%	-13%	20	-3.6%
COc1ccc(NC(=O)COC(=O)Cc2ccc(-c3ccccc3)cc2)c(OC)c1	1.8	0.4	-36%	23%[15.4 µM]	2	-2.8%
CCNS(=O)(=O)c1ccc(-c2ccc(-n3cnnn3)cc2)cc1	4.4	0.0	nt	14%[15.4 µM]	-2	nt
CC(=O)NC1=NN(C(C)=O)C(C)(c2cccc([N+](=O)[O-])c2)S1 (stereo unspecified)	1.9	0.3	-5%	-23%[15.4 µM]	-21	nt
Cc1cc2nn(-c3cccc4ccccc34)nc2cc1NC(=O)c1cccs1	0.4	-0.6	-21%	-5%	-11	14µM*
C(=C\c1ccccc1)/CN1CCN(Cc2nc(Cc3ccccc3)no2)CC1	3.7	1.0	10%	0%	-16	-0.5%
CN(Cc1ccccc1)C(=O)CCNS(=O)(=O)c1ccc2c(c1)oc(=O)n2C	3.0	1.1	-2%	7%	-12	0.4%
Cc1ccc(S(=O)(=O)N2CCCC2C(=O)NCc2ccc3c(c2)OCO3)cc1 (stereo unspecified)	0.7	-0.2	-9%	-4%[15.4 µM]	17	nt
O=C(NCCOc1ccccc1)C1Nc2ccc(C(F)(F)F)cc2C2c3ccccc3CC12 (stereo unspecified)	nt	0.8	-2%	-13%	-18	-4.0%
C=CCc1cccc(/C=N/c2nc3ccccc3n2CC)c1O	4.0	0.5	9%	-12%	26	1.7%
Cc1csc(-c2cnn(-c3ccccc3)c2NC(=O)c2cccc(C(F)(F)F)c2)n1	2.8	0.5	-9%	12%	12	-1.6%
O=C(Nc1nnc(-c2ccccc2F)s1)c1cccnc1	0.6	-0.7	-8%	21%	29	?
Cc1ccc(C(=O)Nc2cccc(N3C(=O)C4CCC(C)CC4C3=O)c2)cc1 (stereo unspecified)	-2.6	1.6	-21%	-34%	22	-5.4%
CCOc1ncccc1C(=O)OCc1cccc([N+](=O)[O-])c1	1.1	-0.2	5%	11%	-2	0.6%
CN(C)c1ccc(NC(=O)CCN2CCN(c3ccccn3)CC2)cc1	-2.0	-0.6	-29%	?	-10	-0.1%
CCOc1ccc(CCNC(=O)CN2C(=O)COc3ccc(S(=O)(=O)N(CC)CC)cc32)cc1	nt	-0.4	nt	nt	6	-18%
CSc1nc(-c2ccccc2)cc(C(F)(F)F)c1C#N	1.6	3.8	-7%	0%	22	-15%
Cc1cccc(-c2nnc(SCC#N)n2Cc2ccccc2)c1	0.3	0.6	?	-29%	32	-2.4%
O=C(N/N=C1/CCS(=O)(=O)c2ccc(F)cc21)c1cccnc1	0.9	-0.6	8%	-8%	-12	0.3%
CCOC(=O)N1CCN(CC(=O)n2c(C)c(C)c3ccccc32)CC1	2.7	1.7	-33%	0%	1	-0.1%
O=C(CCCc1ccccc1)N=C1SC2CS(=O)(=O)CC2N1c1ccccc1 (stereo unspecified)	nt	0.3	2%	22%	-7	2.2%
CCOc1cccc2cc(-c3csc(NC(=O)CCC(=O)N4CCC(C)CC4)n3)c(=O)oc12	0.0	-0.3	9%	25%	-24	?
Cn1c(=O)c([N+](=O)[O-])c(NC2CCS(=O)(=O)C2)c2ccccc21 (stereo unspecified)	6.7	-0.2	6%	3%[15.4 µM]	5	0.0%
COc1ccc(-c2csc(C)n2)cc1OC	1.6	-0.9	11%	15%	5	-1.1%
Cc1oc2cc3oc(=O)c(CC(=O)NCc4ccccc4)c(C)c3cc2c1C	nt	-0.9	nt	nt	-5	-5.1%
Cc1ccc(-c2cnc(NCc3c(F)cccc3Cl)n2C)cc1	nt	1.7	nt	nt	41	-26%
O=C(Nc1cc(C(=O)N2CCCC2)ccc1N1CCCC1)c1ccccc1F	0.7	2.3	6.3µM*	?	22	-0.3%
CCc1cc(C)c(O)c(CC)n1	-1.0	-0.5	-1%	-81%[inhibitor]	32	-4.9%
COc1ccc(Cl)cc1NC(=O)C1CCN(S(=O)(=O)c2ccc3c(c2)CC(C)N3C(C)=O)CC1 (stereo unspecified)	nt	0.1	nt	nt	-5	-1.3%
CCOc1ccc(-n2cc(-c3ccccc3)c3c(Nc4cccc(F)c4)ncnc32)cc1	nt	0.3	nt	nt	11	-17%
COC(=O)C1=C(C(=O)OC)SC2(S1)C(C(=O)OC)=C(C(=O)OC)SC1=C2c2cccc(C)c2NC1(C)C	2.7	0.9	-27%	4%	15	-1.9%
COc1ccc(N2CCN(C(=O)c3cc4cc5ccc(Cl)cc5nc4o3)CC2)cc1	nt	-0.3	nt	nt	-15	-4.7%
COC(=O)c1ccccc1NC(=O)N1CCN(S(C)(=O)=O)CC1	0.0	-1.0	0%	-1%[15.4 µM]	-2	nt
O=C(O)c1ccc(N=Nc2c(O)ccc3ncccc23)cc1	-6.1	3.8	-15%	25%	-12	2.2%
COC(=O)c1cccc(N2C(=O)c3ccccc3S2(=O)=O)c1	0.5	1.4	-5%	-3%	-4	-0.4%
Cc1ccc(NC(=O)Cn2nc(C)c(S(=O)(=O)N(C)C)c2C)cc1C	-2.0	0.0	-7%	?	-2	-3.3%
COc1ccccc1NC(=O)N(C)C[C@@H]1OCc2cn(nn2)CCCC(=O)N([C@@H](C)CO)C[C@H]1C	nt	0.1	nt	-15%	-8	0.3%
CC(C)=NOC(=O)c1c(C)noc1-c1snnc1C	6.3	0.4	12%	8%[15.4 µM]	-5	nt
Cc1c(CC(=O)NCCc2ccccc2)c(=O)oc2c(C)c3occ(C(C)(C)C)c3cc12	nt	0.0	nt	nt	-7	32µM*
Cc1nc(SCC(=O)NCc2ccco2)c2c(C)c(C)sc2n1	-0.7	2.5	18%	?	-26	-1.0%
O=S(=O)(c1cnc[nH]1)N1CCN(C(c2ccc(F)cc2)c2ccc(F)cc2)CC1	nt	0.9	1%	-26%	-6	-0.9%
COc1cc(NC(=O)CSc2nc(=O)n(CCCN3CCOCC3)c3c2CCC3)cc(OC)c1	nt	1.2	-6%	-37%[inhibitor]	13	25µM*
Cc1ccc(NC(=O)CN2C(=O)NC3(CCc4ccccc43)C2=O)cc1Cl (stereo unspecified)	-0.1	-0.3	8%	14%	-4	1.4%
Cc1ccc(C(C)C)c(OC/C(O)=C(\C#N)c2nc3ccccc3[nH]2)c1	6.7	-0.3	-16%	7%[15.4 µM]	-23	0.1%
COc1ccc2c(c1)C(=O)Nc1cc(Cl)ccc1N2	nt	-0.5	-6%	1%[15.4 µM]	12	28µM*
O=[N+]([O-])c1cc(-c2ccn[nH]2)ccc1Cl	-3.4	1.0	-7%	-2%[15.4 µM]	-5	nt
O=S(=O)(c1ccc(-n2cnnn2)cc1)N1CCN(c2cccc(C(F)(F)F)c2)CC1	nt	1.3	nt	nt	23	-1.5%
O=C(CSc1nnc(-c2ccccn2)n1Cc1ccccc1)N1CCCC1	-3.0	0.2	6%	-24%	2	1.0%
Nc1ncnc(N)c1NC(=O)c1cc(Cl)c(OCc2ccccc2)c(Cl)c1	nt	-0.1	nt	?	-1	-0.3%
CC(C)(C)OC(=O)NCCCCCc1cn([C@@H](CO)C(=O)NCCCCCCCCCCC(=O)N2CCN(C(=O)OC(C)(C)C)CC2)nn1	nt	2.0	?	nt	-21	1.5%
O=C(CSc1ccc(Cl)cc1)N1CCOCC1	0.4	1.3	12%	-37%[inhibitor]	27	-0.2%
Cc1ccc(CCNc2ncnc3onc(-c4ccc(Cl)cc4)c23)cc1	nt	-0.9	nt	nt	19	-0.5%
O=C(O)c1cccc(NC(=O)c2cccc(S(=O)(=O)N3CCc4ccccc43)c2)c1	0.8	0.2	-8%	3%[15.4 µM]	2	nt
N#Cc1ccc(NC2=NS(=O)(=O)c3ccccc32)cc1	nt	-0.2	nt	nt	5	-6.4%
O=C(CCCCC(=O)NCc1cccs1)NCc1cccs1	-0.4	-0.8	1%	-25%	-11	0.4%
Cc1cc(C)c(NC(=O)Cn2ccn(-c3cccc(Cl)c3)c(=O)c2=O)c(C)c1	nt	-0.3	nt	nt	12	5.0%
Cc1ccc(F)cc1NC(=O)CSc1nnc(CNC(=O)c2ccco2)n1C	nt	0.1	0%	13%	-18	-2.0%
CCCCN(C(=O)Cc1ccc(S(=O)(=O)N2CCOCC2)s1)c1c(N)n(CC(C)C)c(=O)[nH]c1=O	nt	9.2	-5%	-9%[15.4 µM]	-22	nt
COc1cc2c(cc1NC(=O)COc1cc(C)ccc1C)oc1ccccc12	nt	-0.2	nt	nt	7	-2.7%

More records
Structure	Menin-MLL FL inh	TRPML1 ag	gsp antagonist	gsp agonist	TRPML1 inh	ClpP mod
Cc1ccc(CN2CCNC(=O)C2CC(=O)N(C)CCc2ccccc2)cc1 (stereo unspecified)	3.6	-0.2	0%	6%	-10	-2.8%
COc1ccccc1/C=C(\NC(=O)c1cccc(C)c1)C(=O)Nc1ccccn1	-0.1	-0.8	19%	1%[15.4 µM]	32	-2.8%
O=c1[nH]c2ccc(NC(=S)NC3CCCCC3)cc2[nH]1	-2.8	0.4	nt	-17%[15.4 µM]	8	nt
CCc1nc2ccc(C(=O)NCCCN3CCCC3=O)cn2c1N(C)CCC(C)C	nt	-0.7	nt	nt	-13	-0.3%
CCc1ccc(OCC(=O)OCC(=O)NC2CCCC(C)C2C)cc1 (stereo unspecified)	nt	-1.1	12%	16%	-5	nt
